2A firefly = FMDV 2A StopGo reporter, firefly signal | 0.23% of 120,000 active | AID 1745856 | Potency, µM (highest dose often 57.5 µM), for inactives: top-dose signal change, negative = less light | HEK cells with a luciferase reporter of 2A StopGo recoding; active = well fitted falling curve with a large enough effect; inconclusive = small, poorly fitted or top-dose-only effect; inactive = no such curve, though single readings can be large or run the other way; also: nearly all actives have a fitted effect of over 60% in size; overnight with compound
StopGo RLuc = FMDV 2A StopGo reporter, Renilla signal | Potency, µM (highest dose often 57.5 µM), for the others: at the highest dose signal change, negative = less light | AID 1745857 | HEK cells with a luciferase reporter of 2A StopGo recoding | 0.32% of 120,000 active; active means well fitted falling curve with a large enough effect; inconclusive means small, poorly fitted or top-dose-only effect; inactive means no such curve, though single readings can be large or run the other way; also: nearly all actives have a fitted effect of over 55% in size; overnight with compound
Active calls of the source: *; ? = inconclusive; & = joins results of further samples; [ ] = another dose, or the depositor's remark. % is scaled to controls: 0 for no effect and ±100 for the full control effect; potency is read from the fitted curve at half-maximal effect. This is a subset (hit frequency here may not be typical).

SMILES	2A firefly	StopGo RLuc
COC(=O)CC1c2cc(OC)c(OC)cc2CCN1Cc1nc(C2CC2)no1 (stereo unspecified)	3.3%	-6.0%
O=C(c1cc(S(=O)(=O)N2CCCCC2)ccc1N1CCOCC1)N1CCCc2ccccc21	2.6%	56.7%[activator]
CCOc1ccc(CN(C)C(=O)c2cc(S(=O)(=O)Nc3ccc(C)cc3)ccc2C)cc1	-22.8%	87.7%[activator]
CCN1CCCC1CNCCc1ccccc1 (stereo unspecified)	-2.3%	-4.2%
Cc1ccc(C(=O)O)cc1C	13.9%	7.5%
O=C(O)c1cc(Cl)c(C(=O)O)cc1Cl	55.1%[activator]	0.0%
CCOc1ccc(-c2[nH]nc3c2C(c2c(F)cccc2Cl)C(C#N)=C(N)O3)c(OCC)c1 (stereo unspecified)	5.8%	-0.4%
COc1ccc(-c2c(C)c3ccc(O)c(CN4CCCC4)c3oc2=O)cc1OC	0.0%	33.2%[activator]
COC(=O)c1ccoc1COC(=O)CCc1ccc(OC)c(OC)c1	0.0%	20.0%
CCc1cccc(CC)c1NC(=O)c1cc2ccccc2oc1=O	30.8%[activator]	14.9%
O=C(CCc1cccs1)NCC1CC1	12.1%	6.7%
CCCc1c(C)c2ccc(OCC(=O)OCC)cc2oc1=O	-0.5%	-15.6%
Cc1ccc(Nc2nc(-c3cccnc3)nc3ccccc23)cc1C	-27.3%	?
CC(=O)N1CCN(c2ccc(NC(=O)COc3ccc(C)cc3)cc2Cl)CC1	0.0%	7.9%
COc1cc(-c2noc(CSc3nc(-c4ccc(F)cc4)cc(=O)[nH]3)n2)cc(OC)c1OC	-12.8%	-9.9%
Cc1cc(=O)n2c3ccccc3n(CC(O)CN3CCOCC3)c2c1C#N (stereo unspecified)	7.7%	-6.2%
Cc1ccccc1NC(=O)c1cc2c(-c3ccccc3)nn(-c3ccccc3)c2s1	0.7%	-1.9%
Cc1cccc(OCCCCn2c(C3CC(=O)N(c4ccc(C)cc4C)C3)nc3ccccc32)c1 (stereo unspecified)	?	?
O=S(=O)(Nc1ccc(Cc2ccncc2)cc1)c1ccc(Br)cc1	?	2.4%
CN(C)CCN(Cc1ccccc1)C(=O)Nc1ccc(C(=O)NCC(F)(F)F)cc1	0.7%	1.5%
CCc1ccccc1NC(=O)c1cccn(Cc2ccccc2F)c1=O	-21.6%	-17.8%
COc1ccc(C(=O)NCC(=O)OCC(=O)c2ccccc2)cc1	160.9%[activator]	2.7%
CCC(C(=O)Nc1nc2c(C)cccc2s1)c1ccccc1 (stereo unspecified)	-12.0%	-12.0%
CC(=O)Nc1ccc(Nc2ccc3cc(S(=O)(=O)N4CCCCC4)ccc3n2)cc1	20.8%	232.7%[activator]
CCOc1ccc2c(c1)C=C(C(=O)NCC(F)(F)F)CO2	0.0%	-7.0%

Pulled by structure from the entries so far (four):
SMILES	2A firefly	StopGo RLuc
COc1ccc(C(=O)NCC(=O)OCC(=O)c2ccccc2)cc1	160.9%[activator]	2.7%
CCOc1ccc(CN(C)C(=O)c2cc(S(=O)(=O)Nc3ccc(C)cc3)ccc2C)cc1	-22.8%	87.7%[activator]
CN(C)CCN(Cc1ccccc1)C(=O)Nc1ccc(C(=O)NCC(F)(F)F)cc1	0.7%	1.5%
CCOc1ccc2c(c1)C=C(C(=O)NCC(F)(F)F)CO2	0.0%	-7.0%

Back to the main list, starting 4 compounds before the break.
SMILES	2A firefly	StopGo RLuc
COc1ccc(C(=O)NCC(=O)OCC(=O)c2ccccc2)cc1	160.9%[activator]	2.7%
CCC(C(=O)Nc1nc2c(C)cccc2s1)c1ccccc1 (stereo unspecified)	-12.0%	-12.0%
CC(=O)Nc1ccc(Nc2ccc3cc(S(=O)(=O)N4CCCCC4)ccc3n2)cc1	20.8%	232.7%[activator]
CCOc1ccc2c(c1)C=C(C(=O)NCC(F)(F)F)CO2	0.0%	-7.0%
O=C(CSc1n[nH]c(-c2ccccc2F)n1)Nc1ccc2c(c1)OC1(CCCCC1)O2	28.8%	4.2%
CC(C)N(C(=O)c1cccc(F)c1)C(C)C	-12.1%	-0.5%
COc1ccc(NC(=O)CSc2nncn3c2cc2occc23)c(OC)c1	18.1%&15.0%	10.4%&24.0%
CCc1ccccc1Nc1nn2c(=O)c3ccc(C(=O)NCCCOC(C)C)cc3nc2s1	-6.9%	-11.2%
O=C(NCCCCc1ccccc1)c1nn(-c2ccccc2F)nc1CO	-15.0%	?
COc1cccc(NC(=O)c2cc3c(-c4ccc(Cl)cc4)nn(C)c3s2)c1	-7.2%	-12.6%
CCc1cc(=O)n(CC(=O)Nc2cccc(NC(C)=O)c2)c(-n2nc(C)cc2C)n1	10.0%	4.0%
CCC(CC)(CC(=O)Nc1cccc(/C=C/c2nc(C3CCC3)cs2)c1)C(=O)O	56.7%[activator][11.5 µM]	10.9%
CCOc1ccc(CNC(=O)C2CCCN(c3nnc(C)c4c(C)n(-c5ccccc5)nc34)C2)cc1 (stereo unspecified)	-4.1%	0.0%
COc1ccccc1C(=O)Nc1nc(C)c(C(=O)N(C)C)s1	0.0%	7.6%
CC1=Nc2cc(C(=O)NCCc3ccccc3)ccc2Sc2c(C)ccc(C)c21	58.8%[activator]	45.4%[activator]
CCOc1cc(CN2CCN(C(=O)COc3ccc4ccccc4c3)CC2)ccc1OC	?	?
NCCC12CC3CC(C1)CC(CCN)(C3)C2	-18.0%	-4.4%
O=C(Nc1c(C(=O)N2CCN(c3ccccc3F)CC2)oc2ccccc12)c1ccccc1F	-24.1%	43.2%[activator]
Cc1ccc2c(c1)-c1c(cnn1CC(=O)Nc1ccccc1C#N)CO2	-5.5%	8.9%
CC(C)C(C)(C#N)NC(=O)COc1ccccc1C(F)(F)F (stereo unspecified)	6.4%	-2.8%
Cc1cccc(N2CCN(C(=O)c3ccc4c(c3)CCN4S(=O)(=O)c3ccccc3)CC2)c1C	-9.3%	59.2%[activator]
CCNC(=O)N(Cc1nc(-c2ccc(C)cc2)no1)C1CCCCC1	6.8%	13.4%
CCOc1ccc(N(C)C(CNS(=O)(=O)c2ccccc2)c2ccccc2)cc1 (stereo unspecified)	-13.5%	116.2%[activator]
Cc1cccc(C(=O)Nc2ccc(Cl)cc2C(F)(F)F)c1	0.0%	3.8%
Cc1cc(-c2nn3c(-c4cc(F)ccc4F)nnc3s2)n(C)n1	59.6%[activator]	32.5%
COc1ccccc1C(=O)NC1CC2CCC1C2 (stereo unspecified)	24.8%	6.6%
Cc1ccc(S(=O)(=O)NC(C)CN2CCOCC2)cc1F (stereo unspecified)	6.6%	7.5%
CN(C)C(=O)c1cn(CCC#N)nc1-c1cccc(Cl)c1	12.0%	16.4%
COc1ccc(NS(=O)(=O)c2ccc3c(c2)oc(=O)n3C)cc1Cl	-6.8%	244.4%[activator]
Further structures follow.
SMILES	2A firefly	StopGo RLuc
COC(=O)C1CN(Cc2ccc(C)cc2)CCS(=O)(=O)N1Cc1cn(Cc2ccc(C)cc2)nn1 (stereo unspecified)	-4.9%	8.6%
Cc1ccc(C)c(Cn2c(=O)n(Cc3ccccc3)c(=O)c3c(C)c(C)sc32)c1	-8.7%	4.0%
C=Cc1ccc(Cn2c(=O)cc(C)c3c(C)nn(C)c32)cc1	?	?
CCN1CCC(N(Cc2ccc(F)cc2)C(=O)Nc2cc(Cl)ccc2C(=O)OC)CC1	0.8%&-23.8%	2.8%&4.9%
Nc1ccc(C(=O)NCc2cccnc2)cc1	0.0%	31.7%[activator]
Cc1nc2c(-c3ccccc3)c(C)nn2c(C)c1CCC(=O)N1CCN(c2ccc(F)cc2)CC1	-16.7%	-9.2%
COc1cccc(C(NC(=O)c2cc(C(C)=O)c[nH]2)c2nccn2C)c1 (stereo unspecified)	22.0%	10.4%
Cc1ccc(-c2ccc3c(N)c(C(=O)Nc4ccccc4)sc3n2)cc1	0.0%	18.3%
CCOc1ccc(CNCc2ccccn2)cc1OCC	0.8%	-7.8%
COC(=O)c1ccc(COC(=O)COc2ccccc2OC)o1	-4.7%	-1.8%
CC(C)(C)NC(=O)CC1(C(=O)NCc2ccc(Cl)cc2)CCCC1	11.0%	24.7%
Cn1c(C(=O)NCCc2ccccc2)cc2cc(S(=O)(=O)N3CCCCC3)ccc21	-22.1%	-11.3%
Cc1ccc(SCc2ccc(C(=O)Nc3c(C)cccc3C(C)C)cc2)cc1	4.9%	7.6%
O=C(NCCOCCn1c(=O)oc2ccccc21)Nc1ccc(F)cc1F	-9.0%	-11.3%
CCOc1cc(/C=C2/NC(=O)NC2=O)cc(Cl)c1OCC	-7.3%	-5.1%
COc1ccccc1N1CCN(c2ncc3c(n2)CCN(Cc2ccccc2C)C3)CC1	-10.2%	1.2%
Cc1ccccc1-c1noc(-c2ccccc2Br)n1	32.1%[activator]	6.9%
Cc1cc(C)cc(N2CC(c3nc4ccccc4n3CCN3CCOCC3)CC2=O)c1 (stereo unspecified)	-1.3%	0.1%
O=C(Cc1c(Cl)cccc1Cl)NCc1coc(-c2cccs2)n1	164.6%[activator]	21.4%
Cc1cc(C)c(NS(=O)(=O)c2ccc3c(c2)NC(=O)CCS3)c(C)c1	2.5%	15.6%
CC1CCN(c2ccc(-c3nc(-c4ccccc4)no3)cc2[N+](=O)[O-])CC1	-30.3%	-1.5%
CC(C)(CNC(=O)C(C)(C)C)CNC(=O)C(C)(C)C	15.8%	-5.9%
Cc1c(NC(=O)Nc2ccccc2C(F)(F)F)c(=O)n(-c2ccccc2)n1C	-25.1%	-14.2%
Cc1nc(NC(=O)c2cccc(OCC(C)C)c2)ccc1Br	132.1%[activator]	7.1%
CCOc1ccc(CNC(=O)c2cnc3c(C)cccn3c2=O)cc1	-7.0%	2.2%
(next part)
SMILES	2A firefly	StopGo RLuc
CC1Cc2ccccc2N1S(=O)(=O)c1nnc(NC(=O)c2cccc(F)c2)s1 (stereo unspecified)	-4.2%	-3.1%
CCc1ccccc1N(C)C(=O)c1nn(-c2cccc(OC)c2)c(=O)c2ccccc12	21.1%	65.9%[activator]
Cc1cccc(N(C)C(=O)Cn2nc(-c3ccc(F)cc3)ccc2=O)c1	12.1%	-12.7%
COc1ccccc1-c1cc(C(=O)O)c2cccc(C)c2n1	0.5%	-1.2%
Cc1cc(C(=O)COC(=O)c2nn(C)c(=O)c3ccccc23)c(C)n1C	16.6%	-7.9%
FC(F)(F)c1ccc(Cl)c(N/N=C/c2ccccc2Cl)c1	-1.1%	7.9%
Cl/C(=C\n1cncn1)c1ccc(Cl)cc1Cl	-13.0%[11.5 µM]	-9.8%
O=C(NCCS(=O)(=O)N1CCN(c2ccccc2)CC1)C(c1ccccc1)c1ccccc1	15.4%	10.3%
COc1ccc(CCN(C)C(=O)c2cccc3c(=O)c(C)c(-c4ccccc4)oc23)cc1OC	19.2%	51.2%[activator]
Cn1nc(C(=O)N(Cc2ccc(F)cc2)C2CC2)c2ccccc2c1=O	6.5%	17.1%
Cc1oc(-c2ccccc2)nc1CC(=O)NC(C)C(C)C (stereo unspecified)	15.5%	8.8%
COc1ccc(-n2c(-c3ccc(F)cc3)cn3c4c(=O)n(C)c(=O)n(C)c4nc23)cc1	57.0%[activator]	5.8%
COc1ccc(NC(=O)C2CC(=O)Nc3c(C)c(-c4ccc(C)cc4)nn32)cc1OC (stereo unspecified)	-6.0%	-14.1%
CCN(CC)CCNC(=O)Cc1nn(C)c(=O)c2ccccc12	-16.4%	-9.9%
COc1ccc(-c2cc3c(=O)n(CC(=O)Nc4ccccc4C(F)(F)F)ccn3n2)cc1OC	7.3%	-6.1%
O=C(c1ccc(S(=O)(=O)N2CCCC2)cc1)N1CCCCC1	11.0%	-3.1%
O=C(Nc1ccccc1)C1CCN(C(=O)CCc2ncc(-c3ccc(Cl)cc3)o2)CC1	0.0%	-1.6%
CCOC(=O)c1cc(-c2ccc(OC)c(S(=O)(=O)N3CCN(c4ccccc4)CC3)c2)on1	-12.5%	-9.5%
O=C(NC1CC(=O)N(c2ccc(F)cc2)C1)C1CC1 (stereo unspecified)	-1.3%	-17.0%
Cc1ccc(C)c(Nc2nc(NCc3ccco3)c3ccccc3n2)c1	-27.5%	?
CCn1c(CN(c2ccccc2)S(C)(=O)=O)nnc1SCC(=O)c1cc(C)n(C2CC2)c1C	-9.9%	-12.4%
COC(=O)C(=O)CC(=O)c1ccc(Cl)s1	18.7%	5.1%
COc1ccc(-n2ncc3c2ncn2nc(Cc4ccccc4)nc32)cc1	101.2%[activator]	-0.9%
COC(=O)c1cc2occc2n1Cc1nc(-c2ccc(Cl)cc2)oc1C	15.3%	4.7%
CCCCN(C)CCCNC(=O)CN1C(=O)CSc2ccc(S(=O)(=O)N3CCOCC3)cc21	-16.0%	-11.7%
Further entries.
SMILES	2A firefly	StopGo RLuc
CCOc1ccc(NC(=O)CS(=O)(=O)Cc2nc(-c3ccc(C)cc3)oc2C)cc1	-10.9%	-9.6%
Cc1ccc2c(-c3oc4ccccc4c3NC(=O)C3CC3)cc(=O)oc2c1	8.5%	8.7%
COc1ccc(/C=C\c2onc(C)c2S(=O)(=O)N2CCC(C(=O)Nc3ccc(C)cc3C)CC2)cc1	?	?
CCCCCc1ccc(C(=O)Cc2ccc(OCC)cc2)cc1	-1.7%	-1.8%
CS(=O)(=O)c1ccc(NC(=O)c2ccccc2-c2ccccc2)cc1	-15.5%	-15.7%
COc1ccc2cc(C(=O)N3CCN(c4cccc(C)c4)CC3)c(C)nc2c1	5.4%	1.8%
COc1ccc(Cn2ccc3nc(C)c(C(=O)NCc4ccc(C)cc4)cc3c2=O)cc1	-8.5%	-2.0%
Cc1ccc(CNC(=O)c2cnc3c(-c4ccc(F)cc4)c(C)nn3c2C)o1	-26.3%	-20.2%
CCc1ccc(-c2nc(C)c(C(C)=O)s2)cc1	128.9%[activator]	14.3%
FC(F)(F)c1ccc(C(c2ccc(C(F)(F)F)cc2)N2CCNCC2)cc1	-5.1%	-7.8%
O=C(Nc1ccc(Cl)cc1)N1CCC(CN2CCCC2)CC1	-11.5%	-9.9%
Cc1ccc(NC(=O)C(=O)NCC(c2cccnc2)N2CCN(C)CC2)cc1F (stereo unspecified)	1.7%	-8.8%
